Bioassay records from PubChem BioAssay.
H5N1 CPE – MDCK cell protection from H5N1 avian flu; cytopathic effect, luminescence, 72 h; hits give high values; no value below 0 was filed and about half of the inactive calls have no number; reference of the scale not given here; inhibition, % at 50 µM; hit rate 0.07% among 96,000; AID 740; in the data active means inhibition above about 25%
* marks the source's active call; other numbers are inactive results; i = inactive. An excerpt (hit frequency here may not be typical).

SMILES	H5N1 CPE
CC(C)(C)NC(=O)CSc1nccn1Cc1ccccc1	0.7
CN(C)S(=O)(=O)c1ccc(NC(=O)c2ccccn2)cc1	1.2
CCNC(=O)c1ccc(-n2nc(C(F)(F)F)c3c2CCCC3)cc1	i
CCOCCCNC(=O)C1CCC(=O)N1CCc1ccccc1 (stereo not drawn)	i
COc1ccc(CCN(C)CCC(=O)Nc2c(C)cc(C)cc2C)cc1OC	i
Cc1ccc(C2/C(=C(\O)c3cnn(-c4ccccc4)c3C)C(=O)C(=O)N2CCN(C)C)o1 (stereo not drawn)	i
COc1ccc(C(=O)Nc2c3c(nn2-c2cccc(Cl)c2)CS(=O)C3)cc1 (stereo not drawn)	i
C=CCNC(=O)c1ccc(Cn2c(=S)[nH]c3cc4c(cc3c2=O)OCO4)cc1	0.4
Cc1ccc2[nH]c3c(=O)n(CCC4=CCCCC4)cnc3c2c1	0.2
CCOC(=O)C1CCN(C(=O)COC(=O)c2ccc(Br)o2)CC1	0.0
COc1cccc(C(C)NC(=O)Nc2cccc(C(F)(F)F)c2)c1 (stereo not drawn)	i
C=CCn1c(C)cc(C(=O)CSc2nnc(NCc3ccccc3)s2)c1C	0.1
COC(=O)c1cccc(CSc2nnc(C)s2)c1	i
CCOC(=O)c1c(C)noc1CP(=O)(c1ccccc1)c1ccccc1	0.5
Cc1c(C(=O)N2CCOCC2)sc2nc(-c3ccccc3)cn12	0.3
Cc1ccnn1CCSCC(=O)O	i
CS(=O)(=O)Nc1ccc(C(=O)N2CCCC2)cc1	0.5
CC(C)c1cc(CN2CCN(CCC#N)CC2)cc(C(C)C)c1O	i
CC(C)NS(=O)(=O)c1ccc(CCC(=O)Nc2cc(Cl)ccc2Oc2ccccc2)cc1	1.0
N#Cc1ccccc1Cn1cc(C(=O)C2CC2)c2ccccc21	i
Cn1nc(OC(=O)Nc2ccccc2)cc1C(F)(F)F	i
COc1ccc(Nc2nc(N)nc(CSc3nnc(N)s3)n2)cc1	0.3
COc1cc(C(c2c(C)[nH]n(-c3ccccc3)c2=O)c2c(C)[nH]n(-c3ccccc3)c2=O)cc(OC)c1OC	0.3
Cc1nc2sc(C(c3cccc(F)c3)N3CCCC(C)C3)c(O)n2n1 (stereo not drawn)	i
COc1ccc(OC)c(NC(=O)C23CCC(C)(C(=O)C2)C3(C)C)c1 (stereo not drawn)	0.2

Later entries
SMILES	H5N1 CPE
CCOC(=O)N1CCN(C(=O)C(NC(=O)c2ccc(CC)cc2)C(C)C)CC1 (stereo not drawn)	0.5
CCOC(=O)c1c(C)[nH]c(C(=O)COC(=O)CSC)c1C	i
O=C(CC(O)(c1ccccc1)C(F)(F)C(F)F)c1cccs1 (stereo not drawn)	i
CCn1c(SCC(=O)Nc2cccc(F)c2)nc2c(c1=O)SC(C)C2 (stereo not drawn)	0.8
CCCn1nnnc1SCC(=O)NNC(=O)C1CCCCC1	i
CCOC(=O)c1cccc(N2C(=O)C3C(C(=O)NC4CC4)C4(C)C=CC3(O4)C2C(=O)NC(C)(C)C)c1 (stereo not drawn)	0.2
O=c1nc(NCc2ccccc2Cl)cn[nH]1	0.4
CCc1ccc(Nc2cc(=O)n(C3CCCCC3)c(=O)[nH]2)cc1	i
Cc1cc(C)c(C)c(S(=O)(=O)NCC(=O)Nc2sc3c(c2C(N)=O)CCCC3)c1C	i
O=C(CCc1ccccc1)NNC(=O)C12CC3CC(CC(C3)C1)C2	0.3
COc1cccc(-n2c(COc3ccccc3C)nnc2SCC(=O)O)c1	0.3
O=C(Nc1nc(-c2ccco2)c(-c2ccco2)s1)C1CC(=O)N(c2ccc3c(c2)OCCO3)C1 (stereo not drawn)	i
CCn1c(N2CCC(C)CC2)nc2c1c(=O)n(C)c(=O)n2C	1.9
CCCC(C)C(=O)Nc1cccc(NC(C)=O)c1 (stereo not drawn)	i
CCOC(=O)c1c(C)[nH]c(C(=O)CSc2nnnn2-c2ccc(C)cc2)c1C	i
Cc1cc(C)cc(Oc2nn[nH]n2)c1	i
CC(=O)NC(Cc1c[nH]c2ccccc12)C(=O)N1CCc2ccccc2C1 (stereo not drawn)	0.5
COc1ccc(C(=O)N(Cc2ccco2)Cc2cccs2)c(O)c1	1.9
CCn1ccc(C(=O)Oc2ccc(Cl)cc2)n1	i
O=C(c1cccc(C(=O)N2CCN(c3ccccc3)CC2)c1)N1CCN(c2ccccc2)CC1	i
CCOc1ccc(C(=O)NCC(=O)OCC(=O)N2CCCCC2)cc1	0.6
O=C(Nc1ccc(Cn2cccn2)cc1)c1ccc(COc2ccc(Br)cc2)cc1	1.3
C1=CC2CC1CC2CN1CCN(c2ccccc2)CC1 (stereo not drawn)	i
COc1ccc(NC(=O)C2CCCO2)cc1OC (stereo not drawn)	i
Cc1ccc(NC(=O)CC2SC3=NCCCN3C2=O)c(C)c1 (stereo not drawn)	i

20 neighbouring compounds from above, for reference:
SMILES	H5N1 CPE
CCOC(=O)N1CCN(C(=O)C(NC(=O)c2ccc(CC)cc2)C(C)C)CC1 (stereo not drawn)	0.5
CCOC(=O)c1c(C)[nH]c(C(=O)COC(=O)CSC)c1C	i
O=C(CC(O)(c1ccccc1)C(F)(F)C(F)F)c1cccs1 (stereo not drawn)	i
CCn1c(SCC(=O)Nc2cccc(F)c2)nc2c(c1=O)SC(C)C2 (stereo not drawn)	0.8
CCCn1nnnc1SCC(=O)NNC(=O)C1CCCCC1	i
CCOC(=O)c1cccc(N2C(=O)C3C(C(=O)NC4CC4)C4(C)C=CC3(O4)C2C(=O)NC(C)(C)C)c1 (stereo not drawn)	0.2
O=c1nc(NCc2ccccc2Cl)cn[nH]1	0.4
CCc1ccc(Nc2cc(=O)n(C3CCCCC3)c(=O)[nH]2)cc1	i
Cc1cc(C)c(C)c(S(=O)(=O)NCC(=O)Nc2sc3c(c2C(N)=O)CCCC3)c1C	i
O=C(CCc1ccccc1)NNC(=O)C12CC3CC(CC(C3)C1)C2	0.3
COc1cccc(-n2c(COc3ccccc3C)nnc2SCC(=O)O)c1	0.3
O=C(Nc1nc(-c2ccco2)c(-c2ccco2)s1)C1CC(=O)N(c2ccc3c(c2)OCCO3)C1 (stereo not drawn)	i
CCn1c(N2CCC(C)CC2)nc2c1c(=O)n(C)c(=O)n2C	1.9
CCCC(C)C(=O)Nc1cccc(NC(C)=O)c1 (stereo not drawn)	i
CCOC(=O)c1c(C)[nH]c(C(=O)CSc2nnnn2-c2ccc(C)cc2)c1C	i
Cc1cc(C)cc(Oc2nn[nH]n2)c1	i
CC(=O)NC(Cc1c[nH]c2ccccc12)C(=O)N1CCc2ccccc2C1 (stereo not drawn)	0.5
COc1ccc(C(=O)N(Cc2ccco2)Cc2cccs2)c(O)c1	1.9
CCn1ccc(C(=O)Oc2ccc(Cl)cc2)n1	i
O=C(c1cccc(C(=O)N2CCN(c3ccccc3)CC2)c1)N1CCN(c2ccccc2)CC1	i

Next entries
SMILES	H5N1 CPE
CC(=O)Nc1nc2ccccc2n1Cc1ccccc1	i
COc1cccc(C2/C(=C(\O)c3ccc4c(c3)OCO4)C(=O)C(=O)N2CCN(C)C)c1OC (stereo not drawn)	1.9
C/C=C/Cn1c(SCc2ccc(Cl)cc2)nc2c1c(=O)[nH]c(=O)n2C	i
Cc1nc(-c2ccccn2)sc1C(=O)Nc1ccc(F)cc1	i
CCOc1ccc(N2CC(C(=O)Nc3ccc(S(=O)(=O)N4CCOCC4)cc3)CC2=O)cc1 (stereo not drawn)	i
CCOC(=O)c1cc(-c2ccco2)nc2c1c(C)nn2CCC#N	1.6
Cc1cc2ncn(/N=C/c3cccnc3)c2cc1C	2.0
CC(=O)N1CCN(c2ccc(Nc3ncnc4c3oc3ccccc34)cc2)CC1	0.1
Cc1ccc(/C=N/N2CCN(Cc3ccc(Cl)cc3)CC2)o1	0.3
N#Cc1ccc(NC(=O)Nc2ccc(Cl)cc2)cc1	5.8
Cc1ccc(Nc2cc(=O)oc3ccccc23)c(C)c1	i
Cn1cc(C(=O)c2cccc(Cl)c2Cl)cc1C(=O)O	0.1
O=C(Nc1nccs1)c1cc2sccc2n1Cc1ccc(F)cc1	i
CC(C)CC(=O)NC(=S)NCCc1ccccc1	i
COc1ccccc1-c1cc(C(F)(F)F)nc(N2CCN(c3ccccc3)CC2)n1	i
Cc1cc2nc(-c3ccc(SCC(=O)N4CCN(C(=O)c5ccco5)CC4)nc3)[nH]c2cc1C	i
O=C(C1CCCN1S(=O)(=O)c1cccc2cccnc12)N1CCn2c1nc1ccccc12 (stereo not drawn)	4.6
CCOC(=O)c1c(NC(=O)OC)sc2c1CCC2	i
Cc1ccc(N2CCCCn3c2nc2c3c(=O)[nH]c(=O)n2C)cc1	3.1
Cc1nnc(SCc2ccccc2)nc1/C=C/NOCc1ccc(Cl)cc1Cl	i
CCc1nnc(NC(=O)Nc2ccccc2OC)s1	i
Cc1ccc(NC(=O)c2ccc(OC(=S)N3CCOCC3)cc2)cc1	i
O=C(NCCN1CCCCC1)c1ccc2c(c1)OCCO2	i
Cc1nnc(NC(=O)CSc2nc(C(C)C)nc3sc(C)c(C)c23)s1	0.0
CN(C)S(=O)(=O)c1ccc(C(=O)NCCOc2ccc(F)cc2)cc1	i

The listing continues:
SMILES	H5N1 CPE
CCN1C(=O)N(CC)C2C1N(C(C)=O)C(=O)N2C(C)=O (stereo not drawn)	0.6
COc1ccccc1C(=O)Nc1sc2c(c1C(=O)NCc1ccco1)CCCC2	0.6
Cc1cc(C(F)(F)F)nn1CC(=O)NCc1ccccc1	0.1
CC(C)NC(=O)c1sc2nc3c(c(-c4cccs4)c2c1N)CN(C)CC3	0.7
O=C(NCc1ccco1)c1cc2nc(C3CC3)cc(C(F)(F)F)n2n1	i
Cc1sc(-c2ccccn2)nc1OC(=O)c1cccc(Cl)c1Cl	i
COc1cc(NC(=O)c2onc(C)c2Cl)c(OC)cc1Cl	0.0
CCN1CC=C(c2c[nH]c3ccccc23)CC1	i
O=CNC(Cc1ccccc1)C(=O)O (stereo not drawn)	i
NS(=O)(=O)c1ccc(N=Cc2c(O)n(C3CCCCC3)c(=O)n(C3CCCCC3)c2=O)cc1	i
CCC(C(=O)NC(C)(C)C)N(C(=O)Cn1nnc(-c2ccccc2F)n1)c1cccc2c1CCCC2 (stereo not drawn)	i
Cc1cc2occ(CC(=O)NC3=NCCS3)c2cc1C(C)C	i
N#Cc1c(Nc2ccccc2)sc(C(=O)c2ccccc2)c1N	i
COC(=O)c1cc(Br)ccc1-c1ccc(/C=N/n2nnnc2N)o1	0.6
CCSc1nc2sc3c(c2c(=O)[nH]1)CC(C)(CC)OC3 (stereo not drawn)	i
CCOc1cc(-c2noc(N)c2C#N)cc(OCC)c1OCC	i
Cc1cc(NC(=O)CN2CCN(c3ccc(O)cc3)CC2)no1	0.1
CCN=C1SC(C(=O)NCCc2ccccc2)CC(=O)N1CC (stereo not drawn)	i
O=C(Cc1ccccc1)Nc1nc(-c2cccs2)cs1	i
O=[N+]([O-])c1ccc(-c2ccc(/C=N/c3c(-c4ccco4)nc4ccccn34)o2)c(Cl)c1	i
COC(=O)c1ccccc1NC(=O)CSc1nc(O)cc(=O)n1C1CCCC1	1.6
Cc1[nH]nc2ncc(C(=O)c3cc(Cl)cc(Cl)c3O)cc12	1.0
CCCCN(C)CCn1c(=S)[nH]c2ncccc2c1=O	0.5
CCOC(=O)Cn1nc(C)n(-c2ccc(C(C)(C)C)cc2)c1=O	i
Cc1ccc(C(=O)CSc2nnc(Cn3nnc4ccccc43)n2C)cc1	2.1

Continued.
SMILES	H5N1 CPE
Cc1ccc2c(c1)c1ncnc(N3CCC4(CC3)OCCO4)c1n2C	1.4
CC(=O)Nc1ccc(N2C(=O)C3C4CC(=O)C(c5ccccc54)C3C2=O)cc1 (stereo not drawn)	i
O=C(OCC(=O)N1CCN(c2ccccc2)CC1)c1ccc2ccccc2n1	0.2
O=C1C2C3C=CC(C3=C(c3ccccc3)c3ccccc3)C2C(=O)N1CCO (stereo not drawn)	i
Cc1cccc(-c2cc3nc4c(c(N5CCCC(O)C5)n3n2)CCC4)c1 (stereo not drawn)	i
COCCN(C(=O)CCCC(=O)Nc1ccccn1)C(C(=O)NC1CCCCC1)c1ccc(C)cc1 (stereo not drawn)	i
CCOc1ccccc1N(CC(=O)NC1CCCCC1)S(C)(=O)=O	0.4
CCc1ccc(CC2S/C(=C(\C#N)C(C)=O)NC2=O)cc1 (stereo not drawn)	i
O=C(c1cccc(F)c1)N1CCN(S(=O)(=O)c2ccccc2)CC1	1.2
O=C(CCN1CCCCC1)Nn1c(=S)[nH]c2ccccc2c1=O	i
O=C(Nc1cccc(NC(=O)c2ccc(-c3ccc(Br)cc3)o2)c1)c1ccccc1	i
O=C(NCCSc1ccccc1)c1cccnc1	0.0
O=C(CCn1nnc2ccccc2c1=O)N[C@H](C(=O)O)c1ccccc1	1.4
N#Cc1nc(COc2ccccc2Cl)oc1NCc1ccc(F)cc1	i
CCc1ccc2c(Cl)c(C(=O)N/N=C/c3c[nH]c4ccccc34)sc2c1	i
CCOC(=O)NC(NCc1ccccc1Cl)(C(F)(F)F)C(F)(F)F	0.5
COc1ccc(-c2cc(C(F)(F)F)nc(SCC(=O)Nc3cc(C)on3)n2)cc1	0.1
COc1ccc(OC)c(C(C)NC=O)c1 (stereo not drawn)	0.4
Cc1sc(Nc2ccc([N+](=O)[O-])cc2)nc1-c1c(C)n(C)n(-c2ccccc2)c1=O	1.7
CC1=C(C(=O)Nc2ccccc2)C(c2ccncc2)C(C#N)=C(SCC(=O)Nc2ccccc2)N1 (stereo not drawn)	i
COc1ccc(S(=O)(=O)N2CCCC(C(=O)N3CCN(C)CC3)C2)cc1C (stereo not drawn)	2.5
Cc1cnn(C(=O)c2ccccc2Br)c1	i
Cc1nnc(SCC(=O)Nc2ccc(Oc3ccccc3)cc2)n1N	i
CN1CCN(CC(=O)n2c3c(c4ccccc42)CCCC3)CC1	0.9
O=C(Nc1ccccc1C(F)(F)F)c1cc(-c2ccccc2O)on1	1.1

(cont.)
SMILES	H5N1 CPE
CCCCNC(=O)CSc1nc2cc(OC)c(OC)cc2c(=O)n1Cc1ccc(OC)cc1	i
O=C(Cn1c(NCCO)nc2ccccc21)c1cccs1	0.9
COc1ccc(-c2oc(NC(=O)c3ccc(C)cc3)c(C#N)c2-c2ccc(OC)cc2)cc1	2.2
O=C(CSc1nc(C2CC2)nc2sc3c(c12)CCCC3)NCc1ccco1	i
Clc1ccc(-c2nc(Cc3ccccc3)no2)cc1	0.1
O=C(Cc1cccs1)NNC(=S)NCc1ccc(Cl)cc1	0.3
O=S(=O)(NCCc1ccccc1)c1ccc(S(=O)(=O)N2CCCCC2)cc1	1.1
Nc1c(C(=O)NCCN2CCOCC2)c2nc3ccccc3nc2n1-c1ccccc1	i
